High-throughput results as filed in PubChem BioAssay.
Vaccinia inh: blocks a specific stage of Vaccinia orthopoxvirus infection, primary screen, cell-based, single point; activity change (mCherry), % (concentration not given with the values); hit rate 0.01% among 89,000; Vaccinia-infected cells, mCherry/Venus stage reporter fluorescence; stronger effect = lower value; some inactives read as strong as hits;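 active = mCherry past -33% and 40 or more points under the early reporter, replicates agreeing; inconclusive = past -33% without that gap or agreement; tested in A549 cells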;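 also: scaled between vehicle wells and reference inhibitor wells; 23 nL library stock went into each well; one replicate is shown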
Vaccinia inh Venus: also measured in Vaccinia inh; calls as there; activity change (Venus), %; measured here: Venus reporter, other viral stage;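 negative = less Venus signal; first of two replicates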
* hit, by the source's call; ? = inconclusive; nt = not tested or not shown; & = joins results of further samples. Only part of the results is shown, so the mix of outcomes need not match the whole.

item	mol	Vaccinia inh	Vaccinia inh Venus
1	COc1ccc(NC(=O)Nc2ccc3c(c2)CC(=O)N([C@@H](C)CO)C[C@@H](C)[C@@H](CN(C)C)O3)cc1	-2	-2
2	C[C@H]1CN([C@@H](C)CO)C(=O)c2cc(C#Cc3ccc(F)cc3)cnc2O[C@H]1CN(C)C(=O)c1ccccc1F	?	nt
3	CCC(=O)NC[C@H]1[C@@H](c2ccc(C3=CCCC3)cc2)[C@@H](CO)N1C(=O)CN(C)C	-1	0
4	C[C@@H]1CCCCO[C@H](CN(C)Cc2ccc3c(c2)OCO3)[C@@H](C)CN([C@H](C)CO)C(=O)c2cc(N(C)C)ccc2O1	-6	-1
5	COc1cccc(S(=O)(=O)N(C)C[C@H]2Oc3ncc(-c4cccc(C(=O)N(C)C)c4)cc3C(=O)N([C@@H](C)CO)C[C@@H]2C)c1	-16	-24
6	COc1ccc(-c2cnc3c(c2)C(=O)N([C@H](C)CO)C[C@@H](C)[C@@H](CN(C)C(=O)C2CCCCC2)O3)cc1	16	1
7	CO[C@@H]1CN(C)C(=O)c2cc(NC(=O)C3CCOCC3)ccc2OC[C@H](C)N(Cc2nccs2)C[C@@H]1C	4	-3
8	Cc1noc(C)c1NC(=O)Nc1ccc2c(c1)C(=O)N([C@H](C)CO)C[C@H](C)[C@H](CN(C)C(=O)Nc1ccc(F)cc1)O2	2	-2
9	O=C(Nc1cc(F)ccc1F)N1C[C@H]2[C@@H](c3ccccc31)[C@H](CO)N2C(=O)c1ccccc1	-9	4
10	COc1ccc(-c2cnc3c(c2)C(=O)N([C@H](C)CO)C[C@@H](C)[C@@H](CN(C)C(=O)NC2CCCC2)O3)cc1	6&4	-3&-5
11	C[C@@H]1CCCCO[C@@H](CN(C)CC2CCCCC2)[C@@H](C)CN([C@H](C)CO)C(=O)c2cc(NC(=O)C3CCCCC3)ccc2O1	?	nt
12	C/C=C/c1ccc2c(c1)O[C@H](CN(C)C(C)=O)[C@@H](C)CN([C@H](C)CO)S2(=O)=O	18	21
13	COc1ccc(C(=O)Nc2ccc3c(c2)OC[C@@H](C)N(C)C[C@H](C)[C@@H](OC)CN(C)C3=O)cc1	-8	-1
14	Cc1noc(C)c1NC(=O)Nc1cccc2c1O[C@H](CN(C)C(=O)NC(C)C)[C@H](C)CN([C@@H](C)CO)C2=O	11	12
15	CCC(=O)N[C@H]1C=C[C@H](CC(=O)NCc2ccccc2OC)O[C@H]1CO	17	10
16	C[C@@H]1CN([C@@H](C)CO)C(=O)c2cc(C#Cc3ccncc3)cnc2O[C@@H]1CN(C)C(=O)CN(C)C	11	15
17	N#C[C@@H]1[C@@H](c2ccc(-c3cccc(F)c3)cc2)[C@@H](CO)N1c1nc(-c2ccccc2)cs1	-15	-4
18	C[C@H](CO)N1C[C@H](C)[C@H](CN(C)C(=O)CN(C)C)Oc2ncc(C#CC(C)(C)O)cc2C1=O	21	9
19	C[C@@H]1CN([C@H](C)CO)C(=O)c2c(c3ccccc3n2C)-c2ccccc2CO[C@H]1CN(C)Cc1cccc(C(F)(F)F)c1	?	nt
20	O=C(Cc1ccccc1)N[C@H]1CC[C@@H](CC(=O)N2CCCCC2)O[C@@H]1CO	12	8
21	O=C(C[C@@H]1C=C[C@H](NS(=O)(=O)c2ccccc2)[C@@H](CO)O1)NCc1ccccc1F	-12	-14
22	CC(=O)NC[C@@H]1[C@@H](c2ccc(C3=CCCCC3)cc2)[C@@H](CO)N1C(=O)C1CC1	-18	-14
23	CCCC#Cc1cnc2c(c1)C(=O)N([C@H](C)CO)C[C@@H](C)[C@H](CN(C)C(=O)Cc1ccncc1)O2	4	6
24	C[C@@H]1CCCCO[C@@H](CN(C)Cc2ccc(C(=O)Nc3ccccc3N)cc2)[C@@H](C)CN([C@H](C)CO)C(=O)c2cc(NC(=O)Nc3ccccc3)ccc2O1	9	10
25	C[C@@H]1CN([C@@H](C)CO)C(=O)Cc2cc(NC(=O)CCN3CCOCC3)ccc2O[C@H]1CN(C)S(=O)(=O)c1ccccc1	34	21

Some values from above.
O=C(Nc1cc(F)ccc1F)N1C[C@H]2[C@@H](c3ccccc31)[C@H](CO)N2C(=O)c1ccccc1 in Vaccinia inh Venus → 4
O=C(Cc1ccccc1)N[C@H]1CC[C@@H](CC(=O)N2CCCCC2)O[C@@H]1CO in Vaccinia inh Venus → 8
C[C@@H]1CN([C@@H](C)CO)C(=O)c2cc(C#Cc3ccncc3)cnc2O[C@@H]1CN(C)C(=O)CN(C)C in Vaccinia inh Venus → 15
COc1ccc(NC(=O)Nc2ccc3c(c2)CC(=O)N([C@@H](C)CO)C[C@@H](C)[C@@H](CN(C)C)O3)cc1 in Vaccinia inh Venus → -2

The listing picks up, repeating the five entries before the break.
item	mol	Vaccinia inh	Vaccinia inh Venus
21	O=C(C[C@@H]1C=C[C@H](NS(=O)(=O)c2ccccc2)[C@@H](CO)O1)NCc1ccccc1F	-12	-14
22	CC(=O)NC[C@@H]1[C@@H](c2ccc(C3=CCCCC3)cc2)[C@@H](CO)N1C(=O)C1CC1	-18	-14
23	CCCC#Cc1cnc2c(c1)C(=O)N([C@H](C)CO)C[C@@H](C)[C@H](CN(C)C(=O)Cc1ccncc1)O2	4	6
24	C[C@@H]1CCCCO[C@@H](CN(C)Cc2ccc(C(=O)Nc3ccccc3N)cc2)[C@@H](C)CN([C@H](C)CO)C(=O)c2cc(NC(=O)Nc3ccccc3)ccc2O1	9	10
25	C[C@@H]1CN([C@@H](C)CO)C(=O)Cc2cc(NC(=O)CCN3CCOCC3)ccc2O[C@H]1CN(C)S(=O)(=O)c1ccccc1	34	21
26	CCCC(=O)Nc1ccc2c(c1)C(=O)N(C)C[C@H](OC)[C@@H](C)CN(C(=O)C1CCCC1)[C@H](C)CO2	8	4
27	COCC(=O)N1[C@H](C#N)[C@@H](c2ccccc2C2=CCCCC2)[C@@H]1CO	10	5
28	COCC(=O)Nc1ccc2c(c1)[C@@H]1C[C@H](CC(=O)NCc3ccccc3OC)O[C@@H](CO)[C@@H]1O2	-5	-2
29	C[C@H]1CN([C@@H](C)CO)C(=O)c2cccc(NC(=O)NC3CCCCC3)c2O[C@@H]1CN(C)Cc1ccc(C(=O)O)cc1	1	-1
30	CC(=O)N1[C@H](C(=O)N2CCCCC2)[C@@H](CO)[C@@H]2Cn3c(ccc(-c4ccccc4)c3=O)[C@@H]21	23	10
31	C/C=C/c1ccc([C@@H]2[C@@H](CNC(=O)CC)N(Cc3ccccn3)[C@H]2CO)cc1	-2	-1
32	CCCNC(=O)N[C@@H]1C=C[C@H](CC(=O)NC2CCC2)O[C@H]1CO	11	9
33	C[C@H](O)C#Cc1ccc2c(c1)O[C@H](CN(C)C(=O)Cc1ccccn1)[C@@H](C)CN([C@@H](C)CO)S2(=O)=O	5	8
34	CCCN1[C@@H]2c3ccc(-c4ccc(C(=O)N(C)C)cc4)c(=O)n3C[C@@H]2[C@@H](CO)[C@@H]1C(=O)NCCOC	8	16
35	CCCN(C)C[C@H]1Oc2cc(C#Cc3ccc(OC)cc3)ccc2S(=O)(=O)N([C@@H](C)CO)C[C@H]1C	?	nt
36	CO[C@H]1CN(C)C(=O)c2cc(NC(=O)C3CCC3)ccc2OC[C@H](C)N(C(=O)CN(C)C)C[C@@H]1C	7	6
37	O=C(C[C@H]1C=C[C@@H](NC(=O)Nc2ccccc2F)[C@H](CO)O1)NCc1ccc(-c2ccccc2)cc1	-8	-6
38	O=C(N[C@@H]1CC[C@@H](CCn2cc(-c3ccccn3)nn2)O[C@H]1CO)c1ccncc1	-2	-8
39	C[C@@H]1CCCCO[C@@H](CN(C)Cc2ccc(C(=O)Nc3ccccc3N)cc2)[C@@H](C)CN([C@H](C)CO)C(=O)c2cc(NS(=O)(=O)c3ccc(F)cc3)ccc2O1	-18	-12
40	C[C@@H]1CN([C@@H](C)CO)C(=O)c2cc(NC(=O)Nc3cccc4ccccc34)ccc2O[C@H]1CN(C)C(=O)Nc1ccccc1	-5	-1
41	C[C@@H]1CCCCO[C@@H](CN(C)C(=O)Nc2ccc(F)cc2)[C@@H](C)CN([C@H](C)CO)C(=O)c2cc(NS(=O)(=O)c3cn(C)cn3)ccc2O1	20	17
42	C[C@@H]1CN([C@@H](C)CO)C(=O)CCCn2nncc2CO[C@@H]1CN(C)C(=O)Nc1ccnc(N2CCOCC2)c1	0	-2
43	C[C@H](CO)N1C[C@H](C)[C@H](CN(C)S(=O)(=O)c2cccs2)Oc2c(NC(=O)c3ccncc3)cccc2C1=O	9	9
44	C[C@@H]1CCCCO[C@H](CN(C)CC2CCCCC2)[C@H](C)CN([C@H](C)CO)C(=O)c2cc(NC(=O)c3ccncc3)ccc2O1	-31	-25
45	O=C(C[C@@H]1CC[C@H](NC(=O)c2ccncc2)[C@H](CO)O1)NCCc1ccncc1	-2	-1
46	O=S(=O)(c1ccccc1)N1CCCCN2[C@H](CO)[C@@H](c3ccc(-c4ccccc4)cc3)[C@@H]2C1	1	-9
47	COc1ccccc1CNC(=O)C[C@@H]1C[C@H]2c3cc(NC(=O)c4ccc5c(c4)OCO5)ccc3O[C@H]2[C@H](CO)O1	-27	-19
48	COCC1=C2[C@@H](CCc3ccccc3)OB(O)C[C@@H]2n2c(=O)n(-c3ccccc3)c(=O)n2C1	9	3
49	COc1ccc2c3c(n(C)c2c1)[C@@H](CO)NCC31CN(C(=O)Nc2ccc(F)cc2F)C1	-10	-7
50	C[C@H](CO)N1C[C@H](C)[C@H](CN(C)C(=O)Cc2ccncc2)Oc2cc(C3=CCCCC3)ccc2S1(=O)=O	-31	-19

The list goes on, overlapping the part above by 2 compounds.
item	mol	Vaccinia inh	Vaccinia inh Venus
49	COc1ccc2c3c(n(C)c2c1)[C@@H](CO)NCC31CN(C(=O)Nc2ccc(F)cc2F)C1	-10	-7
50	C[C@H](CO)N1C[C@H](C)[C@H](CN(C)C(=O)Cc2ccncc2)Oc2cc(C3=CCCCC3)ccc2S1(=O)=O	-31	-19
51	COc1cccc(S(=O)(=O)Nc2ccc3c(c2)[C@@H]2C[C@H](CC(=O)N[C@@H](C)c4ccccc4)O[C@@H](CO)[C@@H]2O3)c1	?	nt
52	COCC(=O)N1CC2(CCN(C(=O)NC(C)C)CC2)c2c(n(C)c3cc(OC)ccc23)[C@@H]1CO	1	-10
53	Cn1cnc(S(=O)(=O)N[C@H]2CC[C@H](CC(=O)N3CCN(c4ccccc4)CC3)O[C@@H]2CO)c1	12	12
54	COCC(=O)N(C)C[C@H]1Oc2cc(C#CCN(C)C)ccc2S(=O)(=O)N([C@@H](C)CO)C[C@H]1C	12	4
55	O=C(CCN1CCCCC1)NCC[C@H]1CC[C@@H](NC(=O)C2CCCC2)[C@H](CO)O1	14	10
56	C[C@H](CO)N1C[C@H](C)[C@H](CN(C)Cc2ccccc2)Oc2ncc(-c3ccc(F)cc3)cc2C1=O	-15	-17
57	COc1ccc(CN(C)C[C@H]2Oc3ccc(NC(=O)Cn4cnnn4)cc3C(=O)N([C@@H](C)CO)C[C@H]2C)cc1	13	9
58	CC(C)NC(=O)N(C)C[C@@H]1Oc2ncc(C#Cc3ccncc3)cc2C(=O)N([C@@H](C)CO)C[C@@H]1C	7	6
59	O=C(C1CCOCC1)N1[C@@H](CO)[C@@H](c2ccccc2)C12CN(Cc1cccc(Cl)c1)C2	7	15
60	N#C[C@H]1[C@@H](c2ccccc2)[C@H](CO)N1C(=O)CCN1CCCCC1	8	-1
61	C[C@@H]1CN([C@@H](C)CO)C(=O)c2cc(C#Cc3ccc(F)cc3)cnc2O[C@H]1CN(C)S(C)(=O)=O	11	2
62	C[C@@H]1CN([C@H](C)CO)C(=O)c2cc(NC(=O)Nc3cccc4ccccc34)ccc2O[C@@H]1CN(C)CC1CCCCC1	?	nt
63	CN(C)C(=O)c1ccc(-c2ccc(C3[C@H]4CNC[C@@H]3N4C(=O)Nc3ccccc3F)cc2)cc1 (stereo not given in full)	2	3
64	C[C@H](CO)N1C[C@H](C)[C@H](CN(C)C(=O)Nc2ccccc2)Oc2ccc(NC(=O)Nc3ccc(F)cc3)cc2CC1=O	19	11
65	C[C@@H]1CN([C@H](C)CO)C(=O)c2cc(NS(=O)(=O)c3cccs3)ccc2O[C@@H](C)CCCCO[C@H]1CN(C)CC1CC1	-11	-5
66	CCC(=O)N1[C@H](CO)[C@@H]2c3ccccc3N(C(=O)c3ccc4c(c3)OCO4)C[C@@H]21	8	8
67	CS(=O)(=O)N1CC(=O)N2[C@H](CO)[C@H](c3ccc(C#CCC4CCCC4)cc3)[C@@H]2C1	-27	-19
68	C[C@H](CO)N1C[C@H](C)[C@@H](CN(C)C(=O)Nc2ccc(C(F)(F)F)cc2)Oc2ccc(NC(=O)Nc3cccc4ccccc34)cc2CC1=O	8	15
69	C[C@@H]1CN([C@@H](C)CO)C(=O)c2cc(/C=C/c3ccccc3)cnc2O[C@H]1CN(C)C(=O)CN(C)C	4	0
70	N#C[C@H]1[C@@H](c2ccccc2C2=CCCCC2)[C@H](CO)N1C(=O)Cc1ccncc1	?	nt
71	O=S(=O)(c1ccccc1F)N1CC[C@H]2[C@H](CO)Nc3ccc(C4=CCCCC4)cc3[C@H]21	8	-3
72	C[C@H]1CCCCO[C@H](CN(C)C(=O)C2CCCCC2)[C@@H](C)CN([C@@H](C)CO)C(=O)c2cc(NS(=O)(=O)c3ccc(F)cc3)ccc2O1	?	nt
73	COc1ccc(S(=O)(=O)Nc2ccc3c(c2)C(=O)N([C@@H](C)CO)C[C@@H](C)[C@H](CN(C)S(=O)(=O)c2ccc(C)cc2)OCCCC[C@@H](C)O3)cc1	?	nt
74	COc1ccc2c3c(n(C)c2c1)[C@H](CO)N(C)CC31CN(C(=O)c2ccccc2F)C1	4	4
75	C[C@H](CO)N1C[C@H](C)[C@@H](CN(C)CC2CCCC2)Oc2cc(C#CC3CC3)ccc2S1(=O)=O	-16	-9
76	C[C@H](CO)N1C[C@H](C)[C@H](CN(C)C)Oc2ccc(NS(=O)(=O)c3cn(C)cn3)cc2C1=O	18	6
77	COc1ccccc1C(=O)N1C[C@@H]2[C@H](c3ccccc31)[C@@H](CO)N2C(=O)C1CCCC1	-5	3
